# NPYLR7 ag = activates Aedes aegypti NPYLR7 receptor; HEK293T NPYLR7/Galpha15, GCaMP6s calcium fluorescence; activation, % at 10 µM; hit rate 0.15% among 270,000; in the data active = activation above about 40%;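 also: 0% = vehicle and 100% = reference agonist at the receptor; some compounds past the cut are filed as inactive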
# NPYLR7 ag max-min = recorded beside NPYLR7 ag, whose call it bears; activation, %; measured here: Max-Min RFU normalised activation; some inactives read as strong as hits;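 span of the calcium signal over five minutes; 0% = vehicle and 100% = native peptide agonist; compound fluorescence can raise it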
# Active calls of the source: *; & = joins results of further samples.
SMILES,NPYLR7 ag,NPYLR7 ag max-min
O=C(Nc1ccc(Cl)c(Cl)c1)N1CCN(c2ncccc2C(F)(F)F)CC1,1,-5
CCN1C(=O)c2cccc3c(NC(=O)C4CCN(S(=O)(=O)c5cccs5)CC4)ccc1c23,2,0
[O-][n+]1cc(O)c(Br)c2ccccc21,-14,-20
Cn1c(=O)n(Cc2ccc(Cl)cc2)c(=O)c2c1nc1n2CCCN1Cc1ccco1,1,-5
CCCn1cnnc1CN(C)C(=O)c1nc2c(s1)CCCC2,6,6
CCC(C(=O)NC1CCN(c2ccccc2C(=O)NCCc2ccc(OC)cc2)CC1)c1ccccc1 (centres undefined),18,9
CNCC(=O)Nc1cc(C)on1,1,8
Nc1cc(=O)[nH]c(SCCCn2c(=O)[nH]c3ccccc32)n1,-1,9
O=C(Nc1cccnc1)c1cc2n(n1)C(C(F)(F)F)CC(c1ccc(Cl)cc1)N2 (centres undefined),-6,-9
O=C(Nc1cccc(Cl)c1)c1ccccn1,-4,-10
Cc1ccc(S(=O)(=O)N2CCN(C(=O)c3csc4c3CCCC4)CC2)cc1C,6,18
O=C(O)CN1C(=O)C(=NN2C(=O)CSC2=S)c2ccccc21,-3,0
Cc1nc(Nc2ccc(NC(=O)c3ccc(F)cc3Cl)cc2)cc(-n2cccn2)n1,-3,-10
CCC(C(=O)N1CCCOc2c(cccc2OC)C1)n1cccn1 (centres undefined),-2,-3
Cc1noc(C)c1CNC(=O)NC1CCN(CCN(C)C)CC1,-6,-8
CCOC(=O)c1c(NC(=O)CSc2nnc3ccccn23)sc2c1CCCC2,5,-2
C=CCN1CCN(c2cc(Oc3cccc(C)c3)ncn2)CC1,-8,-2
O=C(CC(c1cccc([N+](=O)[O-])c1)c1c[nH]c2cc(-c3ccccn3)ccc12)N1CCOCC1 (centres undefined),4,-3
Cc1cccc(-n2c(SCc3ccc(C(=O)NC4CC4)cc3)nnc2-c2cccnc2)c1,3,14
O=C(O)c1ccc2c(c1)n(Cc1ccc(C(F)(F)F)nc1)c(=O)n2CC1CC1,4,2
Cc1cc(C)cc(CCC(=O)N2CCCC2c2cc(C)no2)c1 (centres undefined),-9,-13
COc1nc(C(=O)N2CCC(NC(=O)C3CC3)CC2)cc2ccccc12,5,4
O=C(Nc1cccc(Cc2ccccc2)c1)Nc1cccc2[nH]c(COCCO)nc12,-3,17
N[C@@H](C(=O)N[C@@H]1C(=O)N2C(C(=O)O)=C(Cl)CS[C@H]12)c1ccccc1,-16&-7&-1,-18&-11&-7
COCCn1c(SCCN2CCCCC2)nc2c1c(=O)[nH]c(=O)n2C,0,5
CC(c1nnc(-c2cccs2)o1)n1cnc2c1c(=O)n(C)c(=O)n2C (centres undefined),-1,-6
CC(C)(C)c1nnc(NC(=O)c2ccco2)s1,-6,-7
C/C(=C\c1ccccc1)c1ccccc1,6,10
CSc1nccc(-c2ccc(Cl)cc2Cl)n1,-6,-11
Cc1ccc(S(=O)(=O)NC(=O)C/C=C/c2ccc(F)cc2)s1,9,7

# For convenience, 15 of the compounds above:
SMILES,NPYLR7 ag,NPYLR7 ag max-min
CCOC(=O)c1c(NC(=O)CSc2nnc3ccccn23)sc2c1CCCC2,5,-2
C=CCN1CCN(c2cc(Oc3cccc(C)c3)ncn2)CC1,-8,-2
O=C(CC(c1cccc([N+](=O)[O-])c1)c1c[nH]c2cc(-c3ccccn3)ccc12)N1CCOCC1 (centres undefined),4,-3
Cc1cccc(-n2c(SCc3ccc(C(=O)NC4CC4)cc3)nnc2-c2cccnc2)c1,3,14
O=C(O)c1ccc2c(c1)n(Cc1ccc(C(F)(F)F)nc1)c(=O)n2CC1CC1,4,2
Cc1cc(C)cc(CCC(=O)N2CCCC2c2cc(C)no2)c1 (centres undefined),-9,-13
COc1nc(C(=O)N2CCC(NC(=O)C3CC3)CC2)cc2ccccc12,5,4
O=C(Nc1cccc(Cc2ccccc2)c1)Nc1cccc2[nH]c(COCCO)nc12,-3,17
N[C@@H](C(=O)N[C@@H]1C(=O)N2C(C(=O)O)=C(Cl)CS[C@H]12)c1ccccc1,-16&-7&-1,-18&-11&-7
COCCn1c(SCCN2CCCCC2)nc2c1c(=O)[nH]c(=O)n2C,0,5
CC(c1nnc(-c2cccs2)o1)n1cnc2c1c(=O)n(C)c(=O)n2C (centres undefined),-1,-6
CC(C)(C)c1nnc(NC(=O)c2ccco2)s1,-6,-7
C/C(=C\c1ccccc1)c1ccccc1,6,10
CSc1nccc(-c2ccc(Cl)cc2Cl)n1,-6,-11
Cc1ccc(S(=O)(=O)NC(=O)C/C=C/c2ccc(F)cc2)s1,9,7

# Continued.
SMILES,NPYLR7 ag,NPYLR7 ag max-min
COc1ccc(OC)c2c(SC(C)C(=O)O)cc(C)nc12 (centres undefined),1,19
CCCCCCCCCc1c(C#N)c(N)[nH]c(=S)c1C#N,0,0
CC(C)(C)c1cn2nc(N3CCC(Oc4ccccn4)CC3)sc2n1,0,-1
CCN(CC)c1ccc(CN(Cc2ccc(F)cc2)C(=O)COC)c(OS(C)(=O)=O)c1,-10,-7
Cc1ccc(S(=O)(=O)N(CC(=O)NC2CCCc3ccccc32)C2CCCC2)cc1C (centres undefined),-3,-10
CC(C)c1cc(C(=O)NCCc2nc3c(s2)CCC3)n(C)n1,2,-1
Cc1noc(C)c1CCC(=O)N1CCCC(CCc2cccc(F)c2)C1 (centres undefined),16,2
O=C(CNC(=O)c1ccc2c(c1)OCO2)Nc1ccccc1SCc1ccsc1,1,34
CCCCn1c(N2CCN(Cc3ccc(Br)cc3)CC2)nc2c1c(=O)[nH]c(=O)n2C,3,24
CCn1c(=NC(=O)CCS(=O)(=O)c2ccccc2)sc2cc(Br)ccc21,1,0
Cc1ccccc1-c1noc(CNCCS(=O)(=O)N(C)C)n1,15,8
O=C(Cn1c(SCCOc2ccccc2Cl)nc2ccccc21)N1CCOCC1,-4,-5
Cc1ccccc1NC(=O)N1CCN(C(=O)c2cc(-c3ccc(Cl)cc3)n(-c3cccc(F)c3)c2C)CC1,7,23
CC(C(=O)Nc1cc(-c2nnc3n2CCCCC3)c(F)cc1F)n1ccnc1 (centres undefined),1,0
CCC(C)(C)NC(=O)C1=NN(c2cc(C)ccc2C)C(=O)CC1,6,3
CCOc1nc(-c2ccccc2F)n(-c2cccc(NC(=O)c3ccc(OC)cc3)c2)n1,26,26
CC(C)CN(Cc1ccsc1)CC(O)COc1ccc(Cl)cc1 (centres undefined),6,18
CCc1nc2ccc(C(=O)NCCN3CCOCC3)cn2c1N(C)C(=O)COc1ccccc1,-6,-10
Cc1cccc(-n2c(N3CCCC3)nc3cc(C(=O)O)ccc3c2=O)c1,-1,-2
O=C(NC1CCCCCC1)C1CSCN1C(=O)c1c[nH]c2ccccc12 (centres undefined),3,1
COc1ccc2sc(C(=O)NCCn3cnnc3C)c(C)c2c1,2,1
Cc1nn(CN2CCN(c3ccccc3Cl)CC2)c(=S)s1,0,4
Cc1c(NC(=O)OCCSc2nc(N(C)C)nc(N(C)C)n2)sc(=S)n1C,7,4
CCCN(CCc1c[nH]c2ccc(NC(=O)c3ccc(-c4ccccc4)cc3)cc12)CC1CC1,5,1
N[C@@H](Cc1c[nH]c2ccccc12)C(=O)N1CCn2cncc2C1,-2,-5
Cc1cc(C)cc(C(=O)N(CCN2C(=O)c3ccccc3C2=O)c2ccc(C(C)(C)C)cc2)c1,-9,-17
Cc1cccn2c(=O)nc(SCC(=O)Nc3cccc(F)c3)nc12,4,0
C#CC[n+]1ccn2c(C)ccc2c1C,-15,-22
Clc1ccc(CSc2nc3ccncc3[nH]2)cc1,4,3
CC1=NS(=O)(=O)NC(C)=C1CCC(=O)NC(C)c1ccc(-c2ccccc2)cc1 (centres undefined),2,5
CC(CCc1ccccc1)NC(=O)c1csc(CSc2nnc(-c3ccncc3)n2-c2cccc(C(F)(F)F)c2)n1 (centres undefined),-5,4
Cc1cc(C)n(CCN(C)c2nc3nonc3nc2NC2CC2)n1,11,17
O=C(CCS(=O)(=O)c1ccccc1)N(Cc1cccnc1)c1nc2ccc(F)cc2s1,-24,-6
Cc1ccccc1Cn1cnc2c(cnn2CCNC(=O)c2ccc(S(=O)(=O)N(C)C)cc2)c1=O,-2,-10
O=C1OC(C(=O)Nc2nc(-c3ccccc3)cs2)Cc2ccccc21 (centres undefined),-4,-7
CC(C)c1csc(NC(=O)CCC(=O)c2ccc(Br)cc2)n1,1,0
COCc1nc(-c2ccc(CN3CCN(C(=O)c4cc(C)on4)CC3)cc2)no1,2,5
CCOC(=O)C1(Cc2ccccc2C)CCCN(C(=O)C(=O)c2ccccc2)C1 (centres undefined),-10,-16
Fc1ccc(C2=Nc3nnnn3C(c3ccc(F)cc3)C2)cc1 (centres undefined),13&0,5&-2
O=C(CN1C(=O)C(Oc2ccccc2)C1c1ccncc1)NC[C@H]1CCCC[C@H]1O (some centres undefined),-3,4
CC(C)n1cc(-c2c(-c3ccccc3)ncn2CC2CCCO2)cn1 (centres undefined),-4,-4
COc1ccc(C2c3cccn3-c3ccccc3N2C(=O)CN(C(=O)c2ccc([N+](=O)[O-])cc2)C2CC2)cc1 (centres undefined),17,31
Cn1c(S(=O)(=O)Nc2cccc(S(=O)(=O)N3CCOCC3)c2)cnc1Cl,-7,-6
COc1cn(CC(=O)NCC2CCCO2)c(CN2CCN(c3ccccc3)CC2)cc1=O (centres undefined),-5,-6
CC(C)(C)P(=Nc1ccc([N+](=O)[O-])cc1)(c1ccncc1)N1CCCC1 (centres undefined),-1,-6
COc1ccccc1NC(=O)N(Cc1cccc(C(F)(F)F)c1)CC1CC(c2ccc(OC)c(OC)c2)=NO1 (centres undefined),1,14
S=c1[nH]c2ccccc2n1CCOc1ccccc1,-5,-10
Ic1ccn(CCOc2ccccc2)c1,18,12
COc1ccc(Cc2nnc(SCC(=O)Nc3ccccc3C)[nH]c2=O)cc1,-3,-5
CCS(=O)(=O)N(C)c1ccc(F)cc1OC,2,0

# Continued:
SMILES,NPYLR7 ag,NPYLR7 ag max-min
CN(C)c1ncnc2[nH]ncc12,0,-2
O=c1[nH]nc(CCc2nc3ccccc3[nH]2)n1Cc1ccccc1,4,1
Cc1noc(C)c1CCC(=O)OC(C)C(=O)N1c2ccccc2NC(=O)C1(C)C (centres undefined),8,5
CCCCCN(Cc1ccc(F)cc1)C(=O)c1cccc(C(N)=O)c1,-2,-7
CCN(CC)CCn1c(N)cc(=O)[nH]c1=O,-7,-10
CC(C)COC(C)c1noc(Cn2cc(Br)cn2)n1 (centres undefined),2,0
CC(C)NC(=O)N(Cc1c(-c2ccccc2F)noc1N1CCOCC1)CC1CCCO1 (centres undefined),7,9
Cc1cc(=O)[nH]c(-n2nc(-c3cccs3)cc2NC(=O)c2cccs2)n1,-1,0
c1ccc(CCc2noc(CN3CCC(N4CCSCC4)CC3)n2)cc1,0,0
CC(C)c1nnc(-c2cc3ccccc3n2Cc2ccccc2)o1,0,0
CCc1ccccc1NC(=O)N(CCOC)CC(=O)Nc1cc(C(C)(C)C)nn1-c1cccc(C)c1,-3,8
CCN(CC)CCN1CCN(c2ccnc3c(-c4ccccc4Oc4ccccc4)cnn23)CC1,-5,-9
O=C(c1cc(F)cc(C(F)(F)F)c1)N1CCN(c2nccc(-c3ccc(N4CCOCC4)cc3)n2)CC1,4,0
CC1CCCCC1NC(=O)Nc1ccc(N2CCCC2=O)cc1 (centres undefined),0,0
CCC1CN(Cc2cccnc2N)CCN1C(C)C (centres undefined),-5,-16
CCOC(=O)c1c(C)n(-c2ccc(C)cc2C)c2ccc(OC(=O)/C=C/c3ccccc3)cc12,-6,-12
COc1cccc(CC2(CO)CCN(c3ncccn3)CC2)c1,11,6
O=C(Nc1ccc2c(c1)CN(Cc1ccc(-n3cccn3)cc1)CC2)c1ccccn1,-4,-4
Cc1ccc(NC(=O)Cn2cnc([N+](=O)[O-])n2)cc1C,-7,-14
CC1(C(=O)NS(=O)(=O)c2ccc(Cl)s2)CCN1C(=O)Cc1ccc(-c2ccccc2)cc1 (centres undefined),-2,-3
COCC(=O)NCC1CCCN(Cc2ccccc2F)C1 (centres undefined),1,3
O=C(O)CC1SC(=NN=Cc2ccc(Br)s2)NC1=O (centres undefined),1,7
COc1cn(CC(=O)Nc2cccc(F)c2)c(CN2CCC(C)CC2)cc1=O,-2,-2
CCOc1ccc(-c2csc(-n3nc(C)cc3NC(=O)c3cccs3)n2)cc1,-8,-9
CCCc1[nH]n(-c2ccccc2)c(=O)c1C1=C(N2CCC(C)CC2)C(=O)N(c2ccc3c(c2)OCO3)C1=O,16,27
O=C1Nc2ccccc2/C1=C\c1cc(OC(F)F)ccc1Cl,1,-3
CC1(C2CCCN(C(=O)C3CC(=O)N(c4ccccc4Cl)C3)C2)NC(=O)NC1=O (centres undefined),6,4
O=C(NCc1ccccc1CN1CCOCC1)c1n[nH]c2ccccc12,-4,5
Cc1ccc(-c2nc(N(C)Cc3ccn[nH]3)ncc2-c2cccnc2)cc1,3,10
O=S(=O)(c1cc(F)cc(F)c1)N1CCCC1c1ccc[nH]1 (centres undefined),-2,-3
Cc1nc(CC2CCN(Cc3cc4n(n3)CCNC4)CC2)no1,4,0
Cc1ccccc1C1CCCN1C(=O)C(C)(C)NC(=O)c1cccs1 (centres undefined),-3,8
OC[C@@H]1CCCN1Cc1nc(-c2ccc3c(c2)OCO3)no1,-23,-20
CCOc1cc(/C=C2/C(=N)N3N=C(c4cccs4)SC3=NC2=O)ccc1OS(C)(=O)=O,0,0
O=C(Nc1cc(C(F)(F)F)ccc1Cl)N1CC(=O)N2CCc3cc(F)ccc3C2C1 (centres undefined),30,18
CN(Cc1ccc(Cl)c(Cl)c1)C(=O)CCn1c(=O)[nH]c(=O)c2ccccc21,3,-2
Clc1cccc(-c2ccc3nnc(Cl)nc3c2)c1,23,9
CCC(CC)C1CCN(C(=O)c2n[nH]c(=O)[nH]2)C1 (centres undefined),3,9
COc1ccc(-c2cc(C(=O)NC3CCCCNC3=O)n3nc(C(C)(C)C)cc3n2)cc1 (centres undefined),1,9
Cc1noc(C)c1C(=O)NC1CC2CCC(C1)N2Cc1ccc2c(c1)OCO2 (centres undefined),18,31
COc1cccc(OC)c1CN1CC(O)CN(S(=O)(=O)c2ccc(C)cc2)CC1=O (centres undefined),14,25

# A portion of the library; rates above refer to the full screens.
